Assay outcomes deposited in PubChem by ICCB-Longwood Screening Facility, Harvard Medical School.
fixLJ activator – activators of Burkholderia fixLJ two-component system; B. multivorans fixK-promoter GFP reporter, 18 h; stronger effect = higher value; z-score (no concentration beside the values); 0.3% of 29,000 active;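 active means replicate mean overnight rise in green fluorescent reporter signal, 3 or more SD over negative controls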;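 further: score is relative to vehicle wells of the plate; 300 nL library stock went into each well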
Numbers without * were called inactive. These rows are one share of the data (hit frequency here may not be typical).

SMILES	fixLJ activator
CC(C)Cc1cn(CC2CCCN(C(=O)c3ccnc4ccccc34)C2)nn1 (configuration not stated)	-0.99
CCc1ccc(C2C(C(=O)Nc3ccc(Cl)cc3)=C(C)Nc3ncnn32)cc1 (configuration not stated)	-2
Cc1ccc(CCNC(=O)c2cc3c(s2)-c2ccccc2OC3)cc1	-2.4
Cc1n[nH]c(C)c1CCCN(C)Cc1cc(C(C)(C)C)n[nH]1	-0.88
CCC(C)NC(=O)Cn1c(=O)n(Cc2ccc(C(=O)NCc3ccc(C)cc3)cc2)c(=O)c2ccccc21 (configuration not stated)	0.16
Cc1ccc2oc(-c3ccc(Cl)c(NC(=O)c4ccc(OC(C)C)cc4)c3)nc2c1	-0.95
Cc1nn2c(-c3ccco3)ccnc2c1-c1ccc(Cl)cc1	-0.34
COc1cccc(C(=O)NCc2nc(-c3ccccc3)no2)c1OC	-2.4
CCN(CC)c1ccc(CN(C(=O)Cc2coc3ccc(C)cc23)C2CCS(=O)(=O)C2)cc1 (configuration not stated)	0.89
CCSC(C)C(=O)N1CCc2nc(-c3ccc(OC)cc3)[nH]c2C1 (configuration not stated)	-0.68
CCCSc1ncc(Cl)c(C(=O)Nc2c(C(=O)c3ccc(F)cc3)oc3ccccc23)n1	-0.54
CCC(=O)N1CCc2cc(Br)cc(S(=O)(=O)CCC(=O)N3CCN(c4ccccc4F)CC3)c21	0.17
Cc1ccc(CNC(=O)c2nc(SCc3ccc(F)cc3)ncc2Cl)cc1	-0.88
Cc1sc2c(c1C)c(=O)n(-c1ccc(Cl)cc1)c(=O)n2Cc1cc(=O)n2cc(Br)ccc2n1	-0.24
CCNC(=O)CN1CCCC2(CCC(=O)N(Cc3cnc(C)cn3)C2)C1 (configuration not stated)	0.61
COc1cc(CN2CCN(S(=O)(=O)c3ccccc3)CC2)cc(OC)c1O	-2.2
Cc1ccc(N2CC3=C(C2=O)C(c2ccc(Br)cc2)NC(=O)N3C)cc1 (configuration not stated)	-3
Cc1ccc(NC(=O)CSc2nc3c(oc4ccccc43)c(=O)n2-c2ccc(F)cc2)c(C)c1	0.08
Cc1nn(C)c(C)c1S(=O)(=O)N(CC(=O)NCCc1ccccc1)c1ccc(C(C)C)cc1	0.23
CCCn1c(SCc2nc(-c3ccccc3C)no2)nnc1-c1ccc(Cl)cc1	-2.4
CCCn1c(=N)c(C(=O)NCc2cccnc2)cc2c(=O)n3cccc(C)c3nc21	-1.8
O=C(C(c1cccnc1)N1CCCC1)N1CCN(c2nc3ccccc3o2)CC1 (configuration not stated)	-0.23
CCc1cccc(NC(=O)CCNS(=O)(=O)c2ccc3c(c2)CCN3C(C)=O)c1	-1.9
Cc1nc(CNC(=O)c2cc(-c3ccsc3)n[nH]2)sc1C	-0.02
Cc1ccc(C)c(C(=O)N2CCn3nc(CCC(=O)NC4CC4)cc3C2)c1	-0.71
Cc1cnccc1N1CCCN(Cc2cc3ccccc3[nH]c2=O)CC1	0.96
CC(=O)OCC(=O)[C@@]1(O)CCC2C3CCC4=CC(=O)CC[C@]4(C)C3C(=O)C[C@@]21C (some centres not stated)	-0.61
CCCOc1ccc(-c2cccc(C(=O)N(C)C(C)C(=O)NC)c2)cc1CO (configuration not stated)	0.42
CCc1cccc2c3c([nH]c12)C(CC)(CC(=O)O)OCC3 (configuration not stated)	0.03
CCc1cccc(NC(=O)Cn2c(=O)n(-c3cccc(Cl)c3)c(=O)c3c2c2cc(C)ccc2n3C)c1	-0.45
CCCOc1ccc(CN(C(=O)c2nc(SC(C)C)ncc2Cl)C2CCS(=O)(=O)C2)cc1 (configuration not stated)	-0.48
Cc1ccc(Cn2c(=O)c3cccnc3n(Cc3ccc(F)cc3)c2=O)cc1	0.88
CCOc1ccc(NCc2cccn2-c2nnc(N3CCC(C(=O)NCC(C)c4ccccc4)CC3)s2)cc1 (configuration not stated)	-0.75
CC(C)CC(NS(=O)(=O)c1ccc2c(c1)oc(=O)n2C)C(=O)NCCc1ccc(Cl)cc1 (configuration not stated)	-0.77
Cc1cc(C)c(S(=O)(=O)Nc2ccc3oc4c(c3c2)CCCC4)cc1C	0.44
CN(C)C(=O)CCC1CCCN(C(=O)c2ccn(C(F)F)n2)C1 (configuration not stated)	2.1
COc1cc(NC(=O)Cn2cnc3sc(C)c(S(=O)(=O)N4CCC(C)CC4)c3c2=O)cc(OC)c1OC	-0.9
CNCCCNC(=O)C1CCCN(C2CCN(Cc3cccnc3)CC2)C1 (configuration not stated)	-0.86
CN1C[C@]23C=CC(O2)C(C(=O)Nc2ccccc2OCCCc2ccccc2)C3C1=O (some centres not stated)	-2.2
CCOC(=O)c1oc2c(c1C)-c1nn(Cc3ccc(Cl)cc3)cc1CC2	0.84
Cc1ccc(-n2c(=O)c3c(cnn3C)n(CC(=O)Nc3cccc(C)c3)c2=O)cc1	-0.96
CCc1cccc(NC(=O)C(Cc2ccccc2)n2cccc2)c1 (configuration not stated)	-1.6
CCOC(=O)c1c(NC(=O)c2ccc(C)cc2)sc2c1CCCCC2	-0.99
O=C(COc1ccc(Cl)cc1)Nc1ccc(Cl)cc1C(=O)c1ccccc1	0.23
O=C(O)c1ccc(N2C(=O)c3[nH]nc(-c4ccccc4)c3C2c2cccc(F)c2)cc1 (configuration not stated)	0.43
O=C(CC1CCNCC1)Nc1ccc(CC(=O)NC2CC2)cc1	-0.43
O=C(CSC12CC3CC(CC(C3)C1)C2)NCc1csc(-c2cnccn2)n1	-0.5
CCCCNc1cc(N2CCN(C3CCCCC3)CC2)c2noc3c2c1C(=O)c1ccccc1-3	-1.5
CCc1ccc(NC(=O)CSc2nc3nc(C)cc(C)n3n2)cc1	-3.3
CC1=C(C(=O)Nc2ccccc2)C(c2cccs2)n2nc(SCc3ccccc3F)nc2N1 (configuration not stated)	-1.4
COc1cccc(-c2cccc(C(=O)NC3CCC(O)CC3)c2)n1 (configuration not stated)	-0.35
Cc1ccc(-c2nnn3c2nc(NCC(C)c2ccccc2)c2ccccc23)cc1 (configuration not stated)	0.27
Cc1c(O)cccc1C(=O)NC(c1ccc2c(c1)CCO2)C1CC(O)C1 (configuration not stated)	1
COc1ccccc1C(=O)Nc1ccccc1OCc1cc(=O)n2cc(C)sc2n1	-0.15
Cc1c(C)c2c(c(C)c1O)CCC(C)(C(=O)N(C)CCCn1cccn1)O2 (configuration not stated)	-0.19
Cc1cc(C)c(-c2csc(-c3cc4ccccc4oc3=O)n2)cc1C	-1.4
Cc1noc(/C=C/N(C)C)c1S(=O)(=O)N1CCCC(C(=O)Nc2cccc(F)c2)C1 (configuration not stated)	-1
COc1ccccc1CNC(=O)C1CCN(Cc2nc(-c3ccc(OC)c(OC)c3)oc2C)CC1	-1.2
COc1cccc(CNC(=O)C2CCN(c3nnc(-n4c(C)ccc4C)s3)CC2)c1	0.95
COCCCC1CCCN(C(=O)NCCc2cccc(OC)c2)C1 (configuration not stated)	-1
The listing continues:
SMILES	fixLJ activator
COC(=O)c1cccc(NC(=O)c2nsc3ccccc23)c1	-0.28
CCCc1noc(C2CCC(=O)N(Cc3ccccc3OC)C2)n1 (configuration not stated)	-1.7
Cc1ccc(CNC(=O)C2CCN(S(=O)(=O)c3ccc(F)cc3)CC2)cc1	-1.6
COc1ccc(Nc2nnc(-c3cc4cc(Cl)ccc4oc3=O)s2)cc1	0.84
COc1ccc(Cl)cc1NC(=O)Cn1nnc(C(=O)NCc2cccs2)c1N	-1.7
O=C(c1cscn1)N1CC2COC[C@]2(C(=O)N2CCc3ccccc3C2)C1 (some centres not stated)	-4.4
CNc1nc(C)cc(N2CCC(=O)N(Cc3ccc(F)cc3)C(C(C)C)C2)n1 (configuration not stated)	0.31
CCOc1ccc(NS(=O)(=O)c2cc(Br)cc3c2N(C(=O)C2CC2)CC3)cc1	-0.42
Cc1cn2c(=O)cc(COc3ccc(NC(=O)c4ccccc4C)cc3)nc2s1	3.4*
CCCOC(=O)c1c(NC(=O)c2nc3ncccn3n2)sc(C(N)=O)c1C	-1.4
COc1cccc(-c2nn(C)c3sc(C(=O)NCCc4cccc(C)c4)cc23)c1	1.7
COc1ccc(NC(=O)CC2C(=O)N(c3ccccc3)C(=O)N2CCC2=CCCCC2)cc1 (configuration not stated)	-1.8
Cc1c(C(=O)NCc2ccccc2Br)oc2ccc3c(c12)C(=O)CC(C)(C)O3	-1.1
Cc1cccn2cc(CNc3ccc(C(=O)N4CCOCC4)cn3)nc12	-0.56
Cc1ccc(C)c(N2CCN(S(=O)(=O)c3ccc4c(c3)n(C)c(=O)c(=O)n4C)CC2)c1	-1.6

6 entries from above, bar-delimited.
SMILES | fixLJ activator
Cc1ccc(C)c(N2CCN(S(=O)(=O)c3ccc4c(c3)n(C)c(=O)c(=O)n4C)CC2)c1 | -1.6
COc1ccc(Nc2nnc(-c3cc4cc(Cl)ccc4oc3=O)s2)cc1 | 0.84
Cc1ccc(CNC(=O)C2CCN(S(=O)(=O)c3ccc(F)cc3)CC2)cc1 | -1.6
COc1ccc(NC(=O)CC2C(=O)N(c3ccccc3)C(=O)N2CCC2=CCCCC2)cc1 (configuration not stated) | -1.8
CCCOC(=O)c1c(NC(=O)c2nc3ncccn3n2)sc(C(N)=O)c1C | -1.4
COC(=O)c1cccc(NC(=O)c2nsc3ccccc23)c1 | -0.28

The results go on:
SMILES	fixLJ activator
Clc1ccc(Nc2c(-c3ccccc3Cl)nc3ccc(Cl)cn23)cc1	0.02
O=C(CCS(=O)(=O)c1nc(-c2cccs2)cc(C(F)(F)F)n1)Nc1cccc(O)c1	-0.01
COc1ccc(Nc2ncc(C(=O)Nc3ccc(F)cc3F)c3ccccc23)cc1	-0.96
O=c1c2ccccc2n(Cc2c(F)cccc2Cl)c(=O)n1CCc1ccccc1	-0.48
Cc1ccccc1NC(=O)CSc1nc(-c2ccc(F)cc2)nc2c1Cc1ccccc1O2	-0.34
CCOC(=O)c1cnc2ccc(OCC)cc2c1NCCc1ccc(OC)c(OC)c1	-0.02
COc1cc(CNc2ccc3c(c2)ncn3C(C)C)cc(OC)c1OC	-0.74
COc1ccc(NC(=O)C(=O)NCc2ccco2)c(OC)c1	0.72
CC(C)(C)OC(=O)N1CCC(c2nnc(SCc3ccccc3Cl)o2)CC1	1.6
COc1ccc(-c2nc3c([nH]2)CC(C)(C)CNC3=O)cc1OC	-0.64
Cc1cc(C(=O)N2CCCN(C(=O)c3cccc(C)n3)CC2)c(O)cn1	-0.25
COc1ccc2c(c1)-c1nc(NC(=O)c3cc(OC)c(OC)c(OC)c3)sc1CC2	0.35
Cc1ccc(NC(=O)C2CCCN2S(=O)(=O)c2ccc3c(c2)n(C)c(=O)c(=O)n3C)cc1 (configuration not stated)	0.26
COc1ccc(C(=O)Nc2cc(C)c(O)c(-c3nc4ccccc4s3)c2)cc1OC	-0.54
COc1ccc2c(c1)c(=O)c(C(=O)c1ccccc1)cn2CC(=O)Nc1ccc2c(c1)OCCO2	-0.82

Laid out differently: results already given.
| SMILES | fixLJ activator |
| --- | --- |
| COc1cc(CNc2ccc3c(c2)ncn3C(C)C)cc(OC)c1OC | -0.74 |
| COc1ccc(NC(=O)C(=O)NCc2ccco2)c(OC)c1 | 0.72 |
| CC(C)(C)OC(=O)N1CCC(c2nnc(SCc3ccccc3Cl)o2)CC1 | 1.6 |
| COc1ccc(-c2nc3c([nH]2)CC(C)(C)CNC3=O)cc1OC | -0.64 |

(continued)
SMILES	fixLJ activator
Clc1ccccc1-c1nnc(SCc2nc(-c3ccccc3)no2)n1-c1ccccc1	-1.7
COc1ccc(-c2nc(-c3ccccc3)c(-c3ccccc3)[nH]2)cc1Br	-1
O=S(=O)(c1ccccc1)c1nc(-c2ccccc2Cl)oc1N1CCCCCC1	3.2*
Cc1ccc(Cl)cc1NC(=O)CSc1ccc(C(=O)O)cn1	-2.1
COc1ccc(CCNc2nc3ccc(Cl)cc3n3cnnc23)cc1OC	-1.7
Cc1ccc2c(=O)cc(C(=O)Nc3nc4ccc(Cl)cc4s3)oc2c1C	-1.9
CCc1ccccc1NC(=O)c1cc(-c2ccc3c(c2)OCO3)on1	1.4
CC(C)c1ccc(NC(=O)CN(C)S(=O)(=O)c2ccc3c(c2)c(=O)n(C)c(=O)n3C)cc1	-1.2
CCOc1ccc(CCNCc2c(C(=O)O)c(C)n(Cc3ccccc3F)c2C)cc1	-2.1
COC1CC2CCC(C1)N2Cc1ccccc1OCC(=O)O (configuration not stated)	-0.58
NC(=O)CSc1nc2c(oc3ccccc32)c(=O)n1-c1ccccc1F	-1.6
NC(=O)NCC(=O)N1CCCC2(CCC(=O)N(CCc3ccccc3)C2)C1 (configuration not stated)	1.1
CN(C(=O)CCc1nc(-c2ccccc2)no1)C1C[C@H]2CC(O)C[C@H]2C1 (some centres not stated)	0
COc1ccc(NC(=O)c2cn(CC(C)C)c(=O)c3cc(OC)c(OC)cc23)cc1Cl	-1.7
CCCCNC(=O)CCc1c(C)nc2c(c(C)nn2-c2ccccc2)c1C	-3.2
Cc1cccc(C(=O)Nc2ccc(OCc3cc(=O)n4c5c(sc4n3)CCCC5)cc2)c1	-1.1
CC(C)(C)CC(C)(C)c1ccc(OCC(=O)Nc2ccc(S(=O)(=O)Nc3ncccn3)cc2)cc1	-1.3
Cc1ccnc(NS(=O)(=O)c2ccc(NC(=O)c3cc(=O)c4ccc(C)c(C)c4o3)cc2)n1	-0.17
COc1ccc(CCNc2nc3c(c(=O)n(C)c(=O)n3C)n2Cc2ccc(F)cc2)cc1OC	-0.96
CCOCCCn1c(SCC(=O)Nc2cc(C)ccc2C)nc2c(oc3ccccc32)c1=O	-0.75
CCOC(=O)N1CCc2c(sc3c2c(=O)n(-c2ccc(CC)cc2)c(=O)n3Cc2cccc(Cl)c2)C1	-1.1
